Mtb H37Rv: Mycobacterium tuberculosis H37Rv growth inhibition, cell based, confirmatory dose response (AID 1949); most inactive calls were filed without a number and no value below 0 was filed; inhibition, % at 10 µg/mL, or IC50 in µg/mL where a hit was titrated; 100,000 compounds, 1.6% hits;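 active = confirmed in a dose series; inconclusive = about 50% or more but not retested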;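 note: bacteria grown 7 days with compound before Alamar blue readout; 0% = untreated bacteria and 100% = reference antibiotic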
Active calls of the source: *; i = inactive; ? = inconclusive. Only part of the results is shown; the hit share may differ from the screen's.

SMILES	Mtb H37Rv
O=C(CNCc1ccco1)Nc1sc2c(c1C(=O)Nc1ccc(Br)cc1)CCC2	i
COc1ccc(OC)c(NC(=O)CSc2nnc(-c3ccncc3)n2C)c1	9.8%
CCC1CCCCN1S(=O)(=O)c1ccc(Cl)c(OC)c1 (stereo not drawn)	i
O=C(COc1ccccc1[N+](=O)[O-])Nc1ccccc1C(F)(F)F	i
CC(=O)Nc1ccc(S(=O)(=O)Oc2ccc(C(=S)N3CCC(O)CC3)cc2)cc1	i
CCCCC(=O)Nc1cccc(NC(=O)c2cccc(Br)c2)c1	2.4%
O=C(CSc1nccc(=O)[nH]1)N1CCCc2ccccc21	i
COc1ccc(-c2csc3ncnc(Oc4cccc5cccnc45)c23)cc1	3.2%
O=C(CSc1nc2ccccc2n1Cc1ccccc1)c1ccc([N+](=O)[O-])cc1	i
c1ccc(CN2CCC(N3CCc4ccccc4C3)CC2)cc1	i
CC1=C(C(=O)Nc2ccccc2F)C(c2cccc(Br)c2)NC(=S)N1 (stereo not drawn)	i
COC(=O)c1ccc(NC(=O)c2ccc(OC(C)=O)c(OC)c2)cc1	i

(more compounds)
SMILES	Mtb H37Rv
Cc1cc(OCc2ccc(F)cc2Cl)c2c(C)cc(=O)oc2c1	i
O=C1Nc2c(c(=O)[nH]c(=O)n2Cc2ccccc2)C1(NS(=O)(=O)c1ccccc1)C(F)(F)F (stereo not drawn)	2.7%
COc1cc(/C=C/c2[nH]c(=O)[nH]c(=O)c2[N+](=O)[O-])cc(OC)c1O	2.3%
CCOc1ccc(NS(=O)(=O)c2ccc(Cl)c(C)c2Cl)cc1	i
CCC(C(=O)Nc1nc(-c2ccc(Br)cc2)cs1)c1ccccc1 (stereo not drawn)	0.2%
S=c1[nH]c2ccccc2n1Cc1ccc2ccccc2c1	i
O=C(Nc1ccc(-c2ccc(NC(=O)c3ccco3)cc2)cc1)c1ccco1	i
Cc1c(NC(=S)NC(=O)c2cccc(Br)c2)cccc1C(=O)O	i
O=C(COc1cc(Cl)c(Cl)cc1Cl)Nc1cccc(F)c1	i
CCC(C)NS(=O)(=O)c1ccc(NS(C)(=O)=O)cc1 (stereo not drawn)	i
COc1cc(C(=S)N2CCCCC2)ccc1OCc1ccccc1F	3.5%
COc1ccc(Br)cc1C(=O)Nc1cccc2nsnc12	1.4%

New compounds follow
SMILES	Mtb H37Rv
CCOC(=O)C1=C(C)NC(C)=C(C(=O)OCC)C1c1ccc(OC)c(OC)c1	i
COc1cc(NC(=O)COc2cc(C)c(Br)c(C)c2)c(OC)cc1Cl	i
COc1cc(C#N)ccc1OCC(C)C	1.8%
CC(C)C(NC(=O)C(C)(C)Oc1ccc(Cl)cc1)C(=O)O (stereo not drawn)	i
CCn1c(SCC(=O)Nc2sc3c(c2C#N)CCC(C(C)(C)C)C3)nnc1-c1ccco1 (stereo not drawn)	i
CCC(=O)Oc1ccc2c(C(F)(F)F)cc(=O)oc2c1C	i
S=C(NC1CC1)N1CCN(c2ncccn2)CC1	i
CN(C)S(=O)(=O)N1CCN(CC(O)COc2ccc3cc(Br)ccc3c2)CC1 (stereo not drawn)	7.5%
CCCCNC(=O)c1ccccc1NC(=O)CCc1ccccc1	i
CC1=Nc2ccc(C)c3nc(C)cc(c23)N1c1ccc(C)cc1	1.9%
Cc1nnc(C)c2c(C)n(-c3cc(Br)ccc3O)c(C)c12	i
CCC(=O)NCCc1nc2ccccc2[nH]1	i

(next part)
SMILES	Mtb H37Rv
CCn1c(CC(=O)Nc2ccc(C)cc2)nnc1SCC(=O)NCc1ccccc1	i
CSc1cccc(NC(=O)C2CCN(C(=O)c3ccc(Br)cc3)CC2)c1	9.8%
CCN(CC)S(=O)(=O)c1ccc(-c2cn3cccnc3n2)cc1	i
O=C1CC(Cc2ccc(Cl)cc2)C(=O)N1c1ncccn1 (stereo not drawn)	i
C=CCn1c(SCC(=O)Nc2ccc(I)cc2)nnc1-c1ccccc1O	i
O=c1c2c(n3c(=S)[nH]nc3n1CCc1ccccc1)-c1ccccc1CC21CCCCC1	i
CC(C)CC(=O)NC(=S)Nc1ccc(F)cc1F	0.9%
Cc1cc(Br)ccc1OCC(=O)NCCN1CCOCC1	i
CC(=O)Oc1ccc(/C=C(/NC(=O)c2ccccc2Cl)C(=O)Nc2ccc([N+](=O)[O-])cc2)cc1	i
O=C(NCCOc1ccccc1)c1cc2ccccc2o1	9.4%
O=C(Nc1ccc(N2CCN(Cc3ccccc3)CC2)cc1)c1cccc(Br)c1	i
Cc1c(Cl)cccc1NS(=O)(=O)c1ccc2c(c1)OCCO2	i

New compounds follow
SMILES	Mtb H37Rv
COc1ccccc1OCC(=O)Nc1ccc(S(=O)(=O)N2CCCCCC2)cc1	40.5%
CCOc1c(O)ccc(-c2nn[nH]n2)c1[N+](=O)[O-]	4.9%
CC1=C(C(=O)Nc2cc(Cl)ccc2C)C(c2c(Cl)cccc2Cl)NC(=O)N1 (stereo not drawn)	3.1%
COC(=O)c1cn(C(=O)COc2cccc(C)c2)c2ccccc12	i
COC(=O)c1ccccc1NC(=O)COc1cc(Cl)ccc1Cl	i
COc1ccc(C(=S)N(C)C)cc1OC	i
Cc1nnc(SCC(=O)Nc2ccc(Br)c(C)c2C)s1	i
O=C(NCCc1ccc(F)cc1)c1cccc(NC(=O)c2ccccc2)c1	i
COc1ccc(Cc2nc(-c3ccc(C)cc3)no2)cc1OC	i
O=C(CN1CCOCC1)c1ccccc1	i
CCOC(=O)N1CCN(C(=O)CSCc2ccccc2)CC1	i
CCOC(=O)c1cccc(NC(=O)C2C(=O)CN(c3ccccc3)C2=O)c1 (stereo not drawn)	i

Following part
SMILES	Mtb H37Rv
O=S(=O)(Nc1ccc(S(=O)(=O)Nc2cc(Cl)cc(Cl)c2)cc1)c1ccc(F)cc1	2.2%
CCOC(=O)N1CCN(CC(=O)N2CCC(C(N)=O)CC2)CC1	i
Cc1cc(C(=O)NCc2ccc(C(=O)O)cc2)cs1	i
COC(=O)CSc1nnc(-c2ccccc2OC)o1	i
COc1cccc(C(=O)Nc2ccc(S(=O)(=O)Nc3ccccn3)cc2)c1	i
Cn1c(=O)c2c([nH]c(=O)n2C)n(C)c1=O	i
Cc1ccc(OC(=O)COc2ccc(Br)cc2)cc1	i
CCOc1ccc(NC(=O)c2cccc(C)c2OC)cc1	7.5%
Cc1cc2oc(=O)c(Cc3ccccc3)c(C)c2c(O)c1CN1CCCC1	i
CCc1nnc(NC(=O)c2ccc(CSc3ccccc3)o2)s1	i
O=C(CSc1nnc(-c2ccccc2)n1-c1ccc(Cl)cc1)Nc1ccc(Cl)cc1	i
CCC(C(=O)O/N=C(\N)c1ccc([N+](=O)[O-])cc1)c1ccccc1 (stereo not drawn)	i

(next part)
SMILES	Mtb H37Rv
Cc1ccc(C)c(S(=O)(=O)N(C(=O)c2ccncc2)c2ccc(OC(=O)c3ccncc3)cc2)c1	i
CC(C)(C)c1ccc(OC(=O)CCC(=O)O)cc1	i
Cc1cc(Br)ccc1OC(=O)c1ccc([N+](=O)[O-])cc1	i
CCOC(=O)c1sc(NC(=S)N2CCN(C(=O)C3CCCO3)CC2)c(C(=O)OCC)c1C (stereo not drawn)	i
Cc1c(Cl)cccc1N1CCN(S(=O)(=O)c2ccc(C(C)(C)C)cc2)CC1	5.8%
CCOc1ccc(NC(=O)N2CCCCC2)cc1	i
CCOC(=O)c1c(C)n(CC)c2ccc(OC(=O)CSc3ccccc3)cc12	4.3%
Cc1ccc(C(C)NC(=O)c2cccs2)cc1C (stereo not drawn)	0.2%
CCOC(=O)c1cc(NC(=O)Cc2cccs2)cc(C(=O)OCC)c1	i
CC(C)(c1ccccc1)c1ccc(OCCCN2CCCC2)cc1	i
CCOc1ccc(NC(=O)C2c3ccccc3Oc3ccccc32)cc1	i
CC(NC(=S)NCc1ccc(Cl)cc1)c1ccc2c(c1)OCO2 (stereo not drawn)	2.1%

New compounds follow.
SMILES	Mtb H37Rv
O=[N+]([O-])c1cccc(CN2CCC(N3CCCC3)CC2)c1	i
Cc1cccc(N2C(=N)/C(=C(/O)c3ccccc3)C(c3cccnc3)C3=C2CCCC3=O)c1 (stereo not drawn)	i
Clc1ccc(C2=CC(c3cccs3)n3nnnc3N2)c(Cl)c1 (stereo not drawn)	2.5%
Cc1ccc(NC(=O)COc2ccc3c(C)c(Cc4ccccc4)c(=O)oc3c2C)cc1	i
O=C(O)C1CCCN1S(=O)(=O)c1cc(Cl)ccc1Cl (stereo not drawn)	i
N#Cc1c(C(F)(F)F)cc(-c2ccncc2)nc1SCC(=O)Nc1ccc2c(c1)OCCO2	0.7%
Cc1ccccc1C(=O)N1CCC(C(=O)Nc2cccc(Br)c2)CC1	i
Cc1cc([N+](=O)[O-])ccc1N1CCN(C(=O)c2ccccc2Br)CC1	2.1%
O=C(CSCc1c(F)cccc1Cl)NCCc1ccccc1	i
Cc1ccc(NS(=O)(=O)c2c(Cl)cccc2Cl)c(C)c1	i
Cc1ccc(N(CC(=O)Nc2ccc(Br)cc2)S(=O)(=O)c2ccc(F)cc2)cc1	i
O=C(c1cccc(Br)c1)N1CCN(c2ccc([N+](=O)[O-])c(NCc3cccnc3)c2)CC1	i

2 entries from above, as labelled records.
> Cc1cccc(N2C(=N)/C(=C(/O)c3ccccc3)C(c3cccnc3)C3=C2CCCC3=O)c1 (stereo not drawn)
  Mtb H37Rv: i

> O=[N+]([O-])c1cccc(CN2CCC(N3CCCC3)CC2)c1
  Mtb H37Rv: i

Later entries:
SMILES	Mtb H37Rv
O=C1CC(c2ccccc2)C(=O)N1c1ccccc1 (stereo not drawn)	i
CCOC(=O)c1c(NC(=S)Nc2ccc(C)cc2)sc2c1CCN(Cc1ccccc1)C2	0.7%
Cc1nc2ccccc2c(=O)n1-c1cccc(Br)c1	i
COc1cc(NC(=O)c2cccc(OC)c2OC)c(OC)cc1Cl	3.2%
CC(NC(=S)NCCN1CCCCC1)c1ccccc1 (stereo not drawn)	i
Cn1c(CNC(=O)c2ccccc2F)nnc1SCC(=O)Nc1cc(C(F)(F)F)ccc1Cl	0.1%
NC(=O)c1c(NC(=O)c2ccc3c(c2)OCO3)sc2c1CCCCCC2	i
CCc1c(C#N)c(SCC(=O)c2ccc(Cl)cc2)nc2c1C(=O)CC(C)(C)C2	i
CCOc1ccc(S(=O)(=O)Nc2nc3ccccc3nc2Nc2ccc(OC)cc2)cc1	5.3%
CCN(CC)C(=O)CSc1cc(C)c2ccccc2n1	3.1%
O=c1c2ccccc2nc(SCC#CCO)n1-c1ccccc1	i
CCOCCOc1cccc(C(=O)NCc2ccccc2Cl)c1	i

Laid out differently: entries from further up.
> O=c1c2ccccc2nc(SCC#CCO)n1-c1ccccc1
  Mtb H37Rv: i
> CCOCCOc1cccc(C(=O)NCc2ccccc2Cl)c1
  Mtb H37Rv: i

Next results:
SMILES	Mtb H37Rv
COc1cccc(N2CCN(C(=S)NC3CCCC3)CC2)c1	0.2%
Cc1ccc(CNC(=O)CN(C)S(=O)(=O)c2ccc(Br)cc2)cc1	i
Cc1cc(CNC(=S)NCc2ccc(Cl)cc2)nn1C	i
CC(=O)NC(=S)Nc1ccc(-c2nc3ccccc3s2)cc1C	i
C=CCn1c(SCC(=O)O)nc2ccccc2c1=O	i
C=CCc1ccc(OCC(O)CN2CCc3ccccc3C2)c(OC)c1 (stereo not drawn)	i
CCOC(=O)COc1ccc2c(=O)c(-c3ccc(OC)c(OC)c3)c(C(F)(F)F)oc2c1	?
O=C(COc1cc(Cl)ccc1Cl)Nc1ccc(F)cc1	i
O=c1[nH]cnc2nn(-c3ccccc3)nc12	i
CCOc1cc(C2C(C(=O)OC)=CN(C3CC3)C=C2C(=O)OC)ccc1O	i
O=C(Nc1ccccc1N1CCN(C(=O)c2ccc(Cl)cc2)CC1)c1c(F)c(F)c(F)c(F)c1F	6.3%
CC(C)(C)c1ccc(C(=O)Nc2ccc(S(=O)(=O)N3CCCCCC3)cc2)cc1	i

(continued)
SMILES	Mtb H37Rv
Cc1ccc(S(=O)(=O)Oc2ccc3c(-c4ccccc4)cc(=O)oc3c2)cc1	5.6%
O=C(C1CCC1)N1CCN(c2ccc([N+](=O)[O-])cc2)CC1	i
CCCn1c(C(O)c2ccc(OCC)cc2)nc2ccccc21 (stereo not drawn)	i
CC1CCCC(C)N1C(=O)COc1ccc(C(C)(C)C)cc1Br (stereo not drawn)	1.7%
CC(C)(CO)NCC(O)COc1ccccc1Cl (stereo not drawn)	i
Cc1ccccc1OCC(=O)NC(=S)Nc1cc(Cl)c(O)c(Cl)c1	i
C=CCn1c(COc2ccc(C(C)C)cc2)n[nH]c1=S	i
CCOC(=O)c1c(NC(=O)CSc2ccccc2)sc2c1CCC2	i
COc1ccccc1Oc1ccc(S(=O)(=O)NCc2ccco2)cc1	i
O=C(COc1ccc2ccccc2c1Br)Nc1ccccc1	11.7%
COc1ccccc1CC(=O)NCCCc1ccccc1	i
COc1ccc(OCCNC(=O)c2sc3ccccc3c2Cl)cc1	i

Carrying on:
SMILES	Mtb H37Rv
CC(=O)C(C)Sc1ncnc2sc(C)c(C)c12 (stereo not drawn)	i
CCC(=O)c1cccc2c1N=CC1=C(CC(C)(C)CC1=O)N2	i
C#CCOc1cccc(/C=C/c2[nH]c(=O)[nH]c(=O)c2[N+](=O)[O-])c1	i
Cc1c(/C(O)=C2\C(=O)C(=O)N(CCCN(C)C)C2c2ccccn2)cnn1-c1ccccc1 (stereo not drawn)	i
CCCCc1ccc(NS(=O)(=O)c2ccc(OC)c(Cl)c2Cl)cc1	i
CCCCNCCOc1ccc(Cl)c(Cl)c1	0.4%
CCCCOc1ccc(NC(=O)C(=O)NCc2ccc(OC)cc2)cc1	i
CCOC(=O)c1ccc(NC(=O)C2CCN(C(=O)c3ccc(OC)cc3)CC2)cc1	i
